From PubChem
OX1R antag = blocks the human orexin 1 receptor; actives 0.43% (n = 330,000); O43613; AID 434989; CHO/OX1R cells, Fluo-8 calcium fluorescence, orexin A; inhibition, % at 5 µM;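 active = inhibition above its plate's threshold, mean inhibition of all tested compounds on the plate plus 3 SD, cut at about 37% in these data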;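 note: 0% = orexin A challenge wells and 100% = SB-334867-A antagonist wells; not every result past the cut was called active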
Target sequence (O43613 whole entry, looked up): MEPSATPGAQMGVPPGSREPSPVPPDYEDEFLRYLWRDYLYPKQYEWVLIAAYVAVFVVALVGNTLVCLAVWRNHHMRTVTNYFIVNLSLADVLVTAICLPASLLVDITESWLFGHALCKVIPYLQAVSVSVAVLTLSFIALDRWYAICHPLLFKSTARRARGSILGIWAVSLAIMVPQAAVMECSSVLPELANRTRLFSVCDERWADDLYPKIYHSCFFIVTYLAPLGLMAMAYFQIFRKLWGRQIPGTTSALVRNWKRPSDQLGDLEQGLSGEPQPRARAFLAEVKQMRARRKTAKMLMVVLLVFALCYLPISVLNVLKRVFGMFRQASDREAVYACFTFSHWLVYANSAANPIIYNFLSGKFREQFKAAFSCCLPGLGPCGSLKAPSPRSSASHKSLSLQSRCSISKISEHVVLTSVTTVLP
Starred values were filed as active, the others as inactive. An excerpt, and most or all hits are left out here.

SMILES | OX1R antag
CC1CC(C)CN(c2ncnc3c2cnn3C)C1 (centres undefined) | -26
O=C(O)CCN1C(=O)c2ccc(NC(=O)c3ccco3)cc2C1=O | -7
O=C(O)C1CCCN1c1ncnc2c1oc1ccccc12 (centres undefined) | -10
CCOc1cccc(C(=O)Nc2nnc(-c3ccco3)s2)c1 | -2
Cn1cnc2c1c(=O)[nH]c(=O)n2Cc1ccccc1 | -18
O=C(Cn1c(=O)n(Cc2ccco2)c(=O)c2ccccc21)NCC1CCCO1 (centres undefined) | -8
CC(C)/C=C/CN1CCN(CCCc2ccccc2)C(CCO)C1 (centres undefined) | -41
CC(=O)c1c(C)oc2ccc(NS(=O)(=O)c3ccc(C(=O)O)cc3)cc12 | -8
CCN1CCN(C(=O)CCNC(=O)Cn2ccc3ccccc3c2=O)CC1 | -19
CCCCOC(=O)N1CCOCCOCCN(C(=O)OCCCC)CCOCCOCC1 | -11
CC1CN(S(=O)(=O)c2cccc3nsnc23)CC(C)O1 (centres undefined) | -16
COc1ccc(NC(=O)c2c3c(nc4ccccc24)CCC3)cc1 | -29
CCNc1cc(S(=O)(=O)C(F)(F)F)ccc1N | 3
CN1CCc2c(sc3c2C(=O)NC(c2ccc(-c4cccc(Cl)c4)o2)N3)C1 (centres undefined) | 8
CC(C)C[C@@H](CSc1ccc(Br)cc1)N1CCN(CC(C)C)CCC1=O | -30
COCC(=O)Nc1ccc(Br)cc1 | -4
O=C(NCCN1C(=O)C2C3C=CC(C3)C2C1=O)Nc1ccc(Br)cc1 (centres undefined) | -10
Cc1ccccc1C(=O)Nc1cccc(C#N)c1 | -4
N#C/C(C(N)=O)=C1/CCCN1Cc1ccccc1 | -16
O=c1[nH]n2cc(-n3cc([N+](=O)[O-])cn3)cnc2c1Br | -12
CC(C)c1ccc(OCc2cccc(C(=O)N/N=C/c3cccnc3)c2)cc1 | -27
O=c1c2c(nc3cc(-c4cccc(Cl)c4)[nH]n13)CCCC2 | -17
CCCCC(=O)Nc1nnc(SCC(=O)NCC2CCCO2)s1 (centres undefined) | -2
COc1ccc(-c2n[nH]c(=S)n2CC(C)C)cc1 | -10
CC(=O)c1ccc(O)c(CSC2=NCCS2)c1 | -6
(cont.)
SMILES | OX1R antag
COc1ccc(NC(=O)Nc2ccc3[nH]ccc3c2)cc1 | -16
Cn1nnnc1SCc1nnc(-c2ccc(F)cc2)o1 | -14
CCC(=O)NC(=S)Nc1ccc(NC(=O)CC)cc1 | 4
CCS(=O)(=O)c1ccc(C(=O)Nc2ccccc2OC)c(Cl)c1Cl | -2
O=[N+]([O-])c1ccc(/C=N/Nc2cc(Cl)nc(-c3ccccc3)n2)cc1 | -11
COc1cc(CNC(=O)c2ccc(Cn3nc(C)c(Cl)c3C)o2)cc(OC)c1 | 8
COC(=O)c1oc2ccc(Br)cc2c1NC(C)=O | -19
O=C(CNC(=O)c1ccc(Br)cc1)NC1=NCCS1 | -16
COc1ccc(C(=O)Nc2ccc3nc(C)c(C)nc3c2)cc1 | -28
O=C(NCc1ccccc1Cl)C1CCN(C(=O)c2sccc2-n2cccc2)CC1 | -22
COc1cc(C(=O)NCCC(=O)NCCCN2CCCCC2C)cc(OC)c1OC (centres undefined) | -8
CCCC1=C(C(=O)OCC)C(c2cc(Cl)cc(OC)c2OCc2ccccc2)NC(=O)N1 (centres undefined) | -56
COc1ccccc1-n1c(-c2ccc(NS(C)(=O)=O)cc2)n[nH]c1=S | -2
Cc1ccc(-c2noc(CN3CCC(C(N)=O)CC3)n2)cc1 | -12
CN(CC(=O)Nc1ccccc1[N+](=O)[O-])Cc1ccc(Br)cc1 | -47
COc1cc(CO)c(Br)cc1OCC(=O)Nc1ccccc1C | -9
COc1ccc(Nc2nc(NCCO)nc(N3CCCC3)n2)cc1 | -17
CCOc1ccc(NC(=O)N2CCC(n3nnc4ccccc43)CC2)cc1 | -32
CCOC(=O)Cn1cnc(-c2ccc([N+](=O)[O-])cc2)c1 | -16
CSc1ncc(C(C)=O)c(C)n1 | -80
O=C(CCNS(=O)(=O)c1ccccc1)OCc1nnc(-c2ccccc2)o1 | -1
Cc1ccc(NC(=O)Cc2ccc(-n3cccc3)cc2)c(C)c1 | -7
O=C(c1ccc(Cn2cnnn2)cc1)N1CCCC(Nc2ccc(F)cc2)C1 (centres undefined) | -2
O=C(O)CCc1ncc(C(F)(F)F)cc1Cl | 4
CC(C)(C)c1ccc(OCC(O)CN2CCN(C(=O)c3ccccc3)CC2)cc1 (centres undefined) | -4
The list goes on.
SMILES | OX1R antag
O=c1nc(/C=C/c2cc([N+](=O)[O-])ccc2Cl)cc(C(F)(F)F)[nH]1 | -21
COCCN(CCOC)Cc1c(C)[nH]c2ccccc2c1=O | -11
O=c1c2ccccc2cnn1Cc1n[nH]c(=S)n1-c1ccc(Cl)cc1 | -15
O=C(c1nn(-c2ccccc2)c(=O)c2ccccc12)N1CCN(c2ncccn2)CC1 | -30
CC(=O)O[C@H]1CC[C@]2(C)[C@H]3CC=C4[C@@H]5[C@@H](C)[C@H](C)CC[C@]5(C(=O)O)CC[C@@]4(C)[C@]3(C)CC[C@H]2C1(C)C | -15
CCOc1cc(CN2CCN(C(=O)c3cccc4ccccc34)CC2)ccc1OC | -21
Cc1sc2ncnc(-n3nnc4ccccc43)c2c1C | -20
COCCNC(=O)COc1ccc(C)c(C)c1 | -4
O=C(CNC(=O)c1ccccc1)OCC(=O)c1cccs1 | -7
COc1ccc[nH]c1=O | -19
CCCNC(=O)N[C@@H](CCSC)C(=O)OC | -7
O=C(C1=C[C@@H](c2coc3ccccc3c2=O)C[C@@H](OCCCCO)O1)N1CCN(Cc2ccccc2)CC1 | -41
Clc1ccc(-c2nnc(NCCN3CCCC3)c3ccccc23)cc1 | -25
CCc1ccc(CNC(=O)Cn2nc(-c3ccc(C)cc3)ccc2=O)cc1 | -38
CCCCCCCCOC(=O)C1=C(C)Nc2nnnn2C1c1cccs1 (centres undefined) | -25
O=C(Nc1ccc(F)cc1)c1cccnn1 | -16
COC(=O)C(NC(=O)c1cccnc1Cl)C(C)C (centres undefined) | -4
S=C(c1ccc(-c2ccccc2Cl)o1)N1CCOCC1 | -28
Cc1noc(/C=C/N(C)C)c1S(=O)(=O)N1CCN(c2ccccc2)CC1 | -20
Fc1ccc(C(c2nnnn2Cc2cccs2)N2CCN(C3CCCC3)CC2)cc1 (centres undefined) | -28
Cc1cc(-c2ccccc2)nc(N2CCC(C(=O)NC(C)C)CC2)n1 | -17
Cn1cc(C(=O)Nc2ccc(Cl)cc2)c(C(F)(F)F)n1 | 0
CS(=O)(=O)N(CC(=O)NCc1ccccc1Cl)c1cccc([N+](=O)[O-])c1 | -26
COc1ccc(CCC(=O)Nc2nnc(C)s2)cc1 | -18
O=C(c1cc(C2CC2)on1)N1CCN(c2ccc(F)cc2)CC1 | -10

Ordered by length of the SMILES (high to low): some entries from above
SMILES | OX1R antag
CC(=O)O[C@H]1CC[C@]2(C)[C@H]3CC=C4[C@@H]5[C@@H](C)[C@H](C)CC[C@]5(C(=O)O)CC[C@@]4(C)[C@]3(C)CC[C@H]2C1(C)C | -15
O=C(C1=C[C@@H](c2coc3ccccc3c2=O)C[C@@H](OCCCCO)O1)N1CCN(Cc2ccccc2)CC1 | -41
O=c1nc(/C=C/c2cc([N+](=O)[O-])ccc2Cl)cc(C(F)(F)F)[nH]1 | -21
CS(=O)(=O)N(CC(=O)NCc1ccccc1Cl)c1cccc([N+](=O)[O-])c1 | -26
O=C(c1nn(-c2ccccc2)c(=O)c2ccccc12)N1CCN(c2ncccn2)CC1 | -30
Cc1noc(/C=C/N(C)C)c1S(=O)(=O)N1CCN(c2ccccc2)CC1 | -20
Fc1ccc(C(c2nnnn2Cc2cccs2)N2CCN(C3CCCC3)CC2)cc1 (centres undefined) | -28
O=c1c2ccccc2cnn1Cc1n[nH]c(=S)n1-c1ccc(Cl)cc1 | -15
Cc1cc(-c2ccccc2)nc(N2CCC(C(=O)NC(C)C)CC2)n1 | -17
Clc1ccc(-c2nnc(NCCN3CCCC3)c3ccccc23)cc1 | -25
Cn1cc(C(=O)Nc2ccc(Cl)cc2)c(C(F)(F)F)n1 | 0
COCCN(CCOC)Cc1c(C)[nH]c2ccccc2c1=O | -11
S=C(c1ccc(-c2ccccc2Cl)o1)N1CCOCC1 | -28
COC(=O)C(NC(=O)c1cccnc1Cl)C(C)C (centres undefined) | -4
COc1ccc(CCC(=O)Nc2nnc(C)s2)cc1 | -18
CCCNC(=O)N[C@@H](CCSC)C(=O)OC | -7
COCCNC(=O)COc1ccc(C)c(C)c1 | -4
O=C(Nc1ccc(F)cc1)c1cccnn1 | -16
COc1ccc[nH]c1=O | -19

The listing continues.
SMILES | OX1R antag
Cc1nn(C)cc1CNC(=O)c1cccc(Cl)c1 | -14
COc1ccccc1/C=C/C(=O)NCC(=O)N1CCC(N(C)C2CCCC2)CC1 | -7
COc1ccc(S(=O)(=O)N2CCCC(C(=O)NCc3ccccn3)C2)cc1Cl (centres undefined) | -23
COc1ccc(C2OCC3(CO2)SC(N)=NC3=O)cc1 (centres undefined) | -15
CC1=C(C(=O)OCC2CCCO2)C(c2ccccc2OC(C)C)C2=C(CC(c3ccco3)CC2=O)N1 (centres undefined) | -36
CCOc1ccc(NC(=O)COC(=O)c2cc([N+](=O)[O-])ccc2N2CCOCC2)cc1 | -34
CCOc1ccc(CN(C)C(C)C(=O)Nc2ccc([N+](=O)[O-])cc2Cl)cc1OC (centres undefined) | -6
CCSC1=N/C(=C\c2ccc(OC)cc2)C(=O)N1 | 2
O=C1CC(/C=C/c2ccccn2)=Nc2ccccc2N1 | -3
Cc1ccc(C)c(S(=O)(=O)N2CCN(C(=O)Cc3ccccc3)CC2)c1 | -33
CC(NC(=O)C1CSC2(C)CCC(=O)N12)c1ccccc1Cl (centres undefined) | 0
S=C(NCCc1ccccc1)NC1CC2CCC(C1)N2Cc1ccccc1 (centres undefined) | -48
Cc1ccc(N2C(=O)CC(Sc3ccccc3C(=O)O)C2=O)c([N+](=O)[O-])c1 (centres undefined) | -13
CC1CN(C(=O)Nc2ccc(F)cc2)C2(CCCCCC2)O1 (centres undefined) | -3
NC(=O)C1CCN(C2OC(=O)c3ccccc32)CC1 (centres undefined) | -2
Cc1nnsc1C(=O)NCc1c(F)cccc1Cl | -12
CCOC(=O)C1CCN(Cc2cn(C)nc2-c2ccc(Oc3ccccc3)cc2)CC1 | -35
O=C(CN1CCC(n2nnc3cc(F)ccc32)CC1)N1CCc2ccccc2C1 | -34
CCn1c2ccccc2c2cc(NC(=O)COC(=O)c3cc(S(N)(=O)=O)c(Cl)cc3Cl)ccc21 | -21
COc1ccc(NS(=O)(=O)c2ccc(O)c(C(=O)OCC(=O)N3CC(C)OC(C)C3)c2)cc1 (centres undefined) | -27
Cc1nc(-c2cccc(S(=O)(=O)N3CCCCCC3)c2)cs1 | -12
Cc1ccsc1/C=N/NC(=O)c1ccccn1 | -11
CCC(C)(C)NC(=O)CN(C(=O)CCC(=O)Nc1nccs1)c1ccc2c(c1)OCCO2 | -34
COc1ccc(/C(N)=N/OC(=O)c2ccc([N+](=O)[O-])c(C)c2)cc1OC | 3
CCN(CC)S(=O)(=O)c1ccc(Cl)c(NC(=O)COC(=O)/C=C/c2ccc(O)c(OC)c2)c1 | -10
Following part:
SMILES | OX1R antag
CC1CCCCN1C(=O)CSCC(=O)Nc1nc(-c2cccs2)cs1 (centres undefined) | -34
COc1ccc(OCC(=O)Nc2ccc3c(c2)nc(CN2CCCC2)n3C)cc1 | -15
CCOC(=O)c1nnc2c(Br)c(-c3ccccc3)nn2c1C | -22
COc1ccc(-c2cc(C(=O)NC3CCCC3)no2)cc1 | -6
CCOC(=O)CSc1nnc(Cc2ccccc2)n1Cc1ccco1 | -23
CC(C)(C)NS(=O)(=O)c1ccc2c(c1)oc(=O)c1cc(S(=O)(=O)NC(C)(C)C)ccc12 | 6
CCOC(=O)c1c(S(=O)(=O)NCC(=O)Nc2cc(C)ccn2)c(C)n(C)c1C | -3
COC(=O)C(C)N1C(=O)S/C(=C/c2cc(C)n(-c3ccccn3)c2C)C1=O (centres undefined) | -16
C(=C\c1ccccc1)/CNCC1CCCO1 (centres undefined) | -10
Cc1ccc(S(=O)(=O)N2CCN(CC(=O)Nc3ccc([N+](=O)[O-])cc3)CC2)cc1C | -8
CCN(CC)S(=O)(=O)c1ccc2c(c1)nc(CCC(=O)Nc1ccc3c(c1)OCO3)n2C | -12
Cc1[nH]n(C)c(=O)c1[N+](=O)[O-] | 4
O=C(OCC(=O)N1CCCC1=O)c1cc(S(=O)(=O)N2CCOCC2)ccc1F | 2
COC(=O)C1CCN(C(=O)CC(NC(=O)C(F)(F)F)c2cccs2)CC1 (centres undefined) | 8
FC(F)(F)c1cc(Sc2ccccc2)nc(-c2ccccn2)n1 | -18
CCC(CC)C(=O)NCCNC(=O)C(CC)CC | -11
CCOC(=O)C1=C(c2ccccc2)NC(=O)NC1c1cc(OC)c(OC)cc1OC (centres undefined) | -26
CCOC(=O)C1CCN(C(=O)Cn2cc(C(=O)OC)c3ccccc32)CC1 | -18
Cc1ccc(N2CC(C(=O)NC3CC3)CC2=O)cc1Cl (centres undefined) | -14
COC(=O)c1ccc(NC(=O)CCn2c(=O)oc3ccccc32)cc1 | -26
O=S(=O)(c1ccc(F)cc1)c1nc(-c2ccccc2F)oc1N1CCCCC1 | 11
COC(=O)[C@H]1[C@H]2C[C@@H]3c4[nH]c5cc(OC)ccc5c4CCN3C[C@H]2C[C@@H](OC(=O)/C=C/c2cc(OC)c(OC)c(OC)c2)[C@@H]1OC | -6
c1ccc2c(c1)C(=NC1CCCCC1)NC2=NC1CCCCC1 | 7
COc1ccccc1CN1C[C@@H]2C[C@@H](c3[nH]c4ccc(C)cc4c3C)N3CCC[C@@]23C1=O | -12
O=C(O)C1Oc2cc3ccccc3cc2O1 | -19
CC(C)(C)C(=O)Nc1ccc(-c2cn3ccsc3n2)cc1 | -17
O=C(Nc1ccc(N2C(=O)C3C4C=CC(C4)C3C2=O)cc1Cl)c1cccs1 (centres undefined) | -17
